Cruzain noTriton = cruzain (T. cruzi) inhibition without detergent. purified cruzain, Z-FR-AMC fluorescence, no detergent. AID 1476. P25779. 200,000 compounds, 2.3% hits. Potency, µM, for inactives: max response, negative = inhibition, hits mostly inhibitors;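 further: plate controls were enzyme without inhibitor for no effect and buffer without enzyme for full effect; nearly all actives have a fitted effect of over 40% in size; top concentration of the series not given in the record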
Target sequence (P25779 123-467 limits assumed): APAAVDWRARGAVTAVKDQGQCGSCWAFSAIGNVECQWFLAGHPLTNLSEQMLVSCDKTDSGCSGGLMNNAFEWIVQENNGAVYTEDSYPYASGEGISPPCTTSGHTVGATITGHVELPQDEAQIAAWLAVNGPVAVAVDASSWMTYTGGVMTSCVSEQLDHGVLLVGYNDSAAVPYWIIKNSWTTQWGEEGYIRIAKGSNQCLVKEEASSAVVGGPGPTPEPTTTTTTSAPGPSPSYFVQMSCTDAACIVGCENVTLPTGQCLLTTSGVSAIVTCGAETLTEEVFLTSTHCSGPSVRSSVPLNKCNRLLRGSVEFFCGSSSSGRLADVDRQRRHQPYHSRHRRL
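Detergent-free condition (0.00005% Triton X-100) in acetate buffer pH 5.5 with DTT. 1.5 nM enzyme and compound were pre-mixed 15 min, then 2 uM Z-FR-AMC substrate added; reaction progress from fluorescence change between first and third reads (60 s).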
SARS PLP yeast = SARS-CoV PLP inhibition in yeast; S. cerevisiae expressing SARS-CoV PLpro, growth rescue; control for the full effect not named in the record; Potency, µM (top dose mostly 32.9 µM), for the others: at the highest dose activity, positive = growth rescue; 330,000 compounds, 0.19% hits; active means well fitted rising curve with a large enough effect; inconclusive means small, poorly fitted or top-dose-only effect; inactive means no such curve, though single readings can be large or run the other way; further: 0% is about no effect; nearly all actives have a fitted effect of over 55% in size; growth read by luminescence after 48 h
RE007 growth inh = less growth of the S. pombe RE007 Vpr strain; S. pombe RE007 Vpr strain, BacTiter-Glo ATP luminescence, 24 h; control for the full effect not named in the record; Potency, µM (top dose mostly 92.2 µM), for inactives: at the top dose activity change, negative = less growth; 360,000 compounds, 0.21% hits; AID 651644; active = well fitted falling curve with a large enough effect; inconclusive = small, poorly fitted or top-dose-only effect; inactive = no such curve, though single readings can be large or run the other way;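 further: on the % scale 0 is the no-effect control and ±100 the full control effect; nearly all actives have a fitted effect of over 50% in size; the assay follows cell death caused by Vpr and the record does not say whether a fall means rescue or toxicity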
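Fission yeast RE007 carrying one integrated HIV-1 vpr copy, seeded at OD 0.01 in PMG+AL medium with 23 nL pinned compound. Grown 24 h at 30 degrees; viability read by BacTiter-Glo luminescence after 5 min.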
NS1 function inh = influenza NS1 inhibition; S. cerevisiae slowed by influenza A NS1, growth recovery by OD600; Potency, µM (titrated, usually from 46.1 µM), for the others: at the top dose activity, positive = more growth; 270,000 compounds, 0.4% hits; AID 2326; active means well fitted rising curve with a large enough effect; inconclusive means small, poorly fitted or top-dose-only effect; inactive means no such curve, though single readings can be large or run the other way; further: nearly all actives have a fitted effect of over 50% in size
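Recovery from NS1-induced slow growth read by OD600 in budding yeast switched to galactose assay medium (pH 6.0, -URA) at 1:100 dilution. Compound 23 nl per well; the matching strain lacking NS1 serves as control.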
Cruzain inh Det = inhibitors of Trypanosoma cruzi cruzain with detergent; P25779; purified cruzain, Z-FR-AMC fluorescence, 0.01% Triton; Potency, µM, for the others: max response, negative = inhibition, most hits filed as inhibitors; 200,000 compounds, 0.43% hits; AID 1478;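 further: plate controls were neutral wells for no effect and buffer without enzyme for full effect; nearly all actives have a fitted effect of over 40% in size; top concentration of the series not given in the record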
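Sodium acetate buffer (100 mM, pH 5.5) containing 5 mM DTT and 0.01% Triton X-100 hosted 1.5 nM cruzain and test compound for 15 min at room temperature. Cleavage of 2 uM Z-FR-AMC was then tracked by fluorescence.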
LASV entry inh = inhibitors of Lassa virus binding or cell entry | Potency, µM (series often up to 37.9 µM), inactives show at the top dose activity change, negative = inhibition, usual class: inhibitors | 300,000 compounds, 1.2% hits | Lassa virus pseudotype entry inhibition, cell reporter; control for the full effect not named in the record; active means well fitted inhibition curve with a large enough effect; inconclusive means small, poorly fitted or top-dose-only effect, or effect the other way; inactive means flat fitted curve, though single readings scatter; tested in HEK293 cells; further: on the % scale 0 is the no-effect control and ±100 the full control effect; nearly all actives have a fitted effect of over 50% in size; luciferase read-out
StopGo reporter = lowers the luciferase signal of an FMDV 2A StopGo reporter; human cells with a luciferase reporter of 2A StopGo recoding; control for the full effect not named in the record; Potency, µM (series often up to 57.9 µM), for inactives: at the top dose signal change, negative = less light; AID 1159524; 410,000 compounds, 1.2% hits; active = well fitted falling curve with a large enough effect; inconclusive = small, poorly fitted or top-dose-only effect; inactive = no such curve, though single readings can be large or run the other way; tested in HEK293T cells; further: on the % scale 0 is the no-effect control and ±100 the full control effect; nearly all actives have a fitted effect of over 45% in size; luciferase light after 4 h
Marburg entry inh = blocks Marburg virus binding to or entry into cells | Potency, µM (series often up to 37.8 µM), inactives show at the top dose activity change, negative = inhibition, most hits filed as inhibitors | 300,000 compounds, 1.8% hits | Marburg virus pseudotyped entry inhibition, cell reporter; control for the full effect not named in the record; about a third of the inactives were read at about 46 µM | AID 540276; active = well fitted inhibition curve with a large enough effect; inconclusive = small, poorly fitted or top-dose-only effect, or effect the other way; inactive = flat fitted curve, though single readings scatter; tested in HEK293 cells; about a fifth of its hits are not listed in these tables; further: on the % scale 0 is the no-effect control and ±100 the full control effect; luciferase read-out
Active calls of the source: *; ? = inconclusive; nt = not tested or not shown; & = joins results of further samples; [ ] = remark or other dose. Unless noted, the call rests on the fitted dose curve; in most records, active means well fitted curve in the direction sought with a large enough effect; inconclusive means small, poorly fitted or top-dose-only effect, or another doubt; inactive means no such curve, though single readings can be large; an effect the other way counts as inactive or inconclusive. Potency means the concentration at half of the fitted maximal effect.

SMILES | Cruzain noTriton | SARS PLP yeast | RE007 growth inh | NS1 function inh | Cruzain inh Det | LASV entry inh | StopGo reporter | Marburg entry inh
CCN(CC)S(=O)(=O)c1ccc2oc(C(=O)NC3CCCc4ccccc43)c(C)c2c1 (stereo not given) | -9% | -8% | -11% | ? | 1.9% | ? | nt | -25%
COc1ccc(C(=O)NC(=S)Nc2cccnc2)cc1OC | nt | 1% | -4% | 3% | nt | -3% | 12% | ?
Cc1cc2oc(C(=O)Nc3c(C)n(C)n(-c4ccccc4)c3=O)cc(=O)c2cc1C | 0% | nt | nt | nt | -2.6% | -8%[46.1 µM] | -12% | -16%[46.1 µM]
O=C(Nc1ccc(NC(=O)c2cccs2)c(Cl)c1)c1ccco1 | nt | 0% | -6% | -41% | nt | -19%[46.1 µM] | -11% | ?
O=C(Nc1ccc(N2CCN(Cc3ccccc3)CC2)cc1)c1ncn[nH]1 | -1% | 0% | -7% | -1% | -2.6% | -19% | -14% | ?
COc1ccccc1N(CC(O)CN1CCCCC1)S(=O)(=O)c1ccc(C)cc1 (stereo not given) | nt | -1% | -18% | -9% | nt | 0%[46.1 µM] | -13% | ?
COCCCNc1nc2c(c(=O)n(C)c(=O)n2C)n1Cc1ccccc1 | 0% | nt | nt | nt | 1.9% | 3%[46.1 µM] | ? | -22%[46.1 µM]
CON1C(=O)C(=O)N(OC)C2CCCCC21 (stereo not given) | 7% | -4% | 14% | 12% | 2.2% | 10% | 11% | 18%
Oc1ccc(O)c(Cc2nc3ccccc3s2)c1 | nt | 1% | -2% | nt | nt | ? | -3% | ?
O=C1N=C(N2CCOCC2)S/C1=C/c1cccs1 | -1% | 2% | 0% | -10% | -5.6% | 6% | 82%[activator] | 3%
CCCN(CC(=O)Nc1ccc(C(N)=O)cc1)CC(=O)Nc1ccc(F)c(F)c1F | nt | 3% | 14% | 2% | nt | nt | -7% | nt
O=C(C1CCN(S(=O)(=O)c2cccs2)CC1)N(c1ccccn1)C1CCCCC1 | nt | 2% | 7% | nt | nt | -9%[46.1 µM] | -8% | -13%[46.1 µM]
Cc1cc(C(=O)OCC(=O)c2ccc(Br)s2)no1 | -16% | -7% | 0% | -18% | -1.9% | 10% | 26% | 11%
Clc1nnc(NN=C2CCCC2)c2ccccc12 | -17% | 2% | -21% | -4% | -9.2% | 20% | 1% | ?
CCOc1ccc(C(=O)NCc2ccncc2)cc1OCC | -7% | 3% | -10% | -5% | 7.0% | -1% | -11% | 2%[46.1 µM]
CS(=O)(=O)N(CC(=O)NCCC1=CCCCC1)C1CCCCC1 | 13% | 4% | 5% | 4% | 2.8% | -16% | -12% | 8%
CN(c1ccccc1)S(=O)(=O)c1cccc(C(=O)NNC(=O)c2ccncc2)c1 | nt | 1% | ? | nt | nt | 3%[46.1 µM] | ? | 22%
CC(C)c1ccc(NC(=O)C(c2ccccc2)N(C)C(=O)c2cnccn2)cc1 (stereo not given) | nt | 3% | 5% | nt | nt | 0% | -10% | -1%
COc1ccc(NC(=O)CN(C)C(=O)c2cc(CN3C(=O)c4ccccc4C3=O)ccc2OC)cc1 | nt | 0% | -1% | nt | nt | -6% | -14% | 0%
O=C(O)c1ccc2nc(-c3ccccc3)c(-c3ccccc3)nc2c1 | -9% | -14% | -10% | -23% | -7.6% | ? | ? | -37%&-37%
O=C(c1c(F)cccc1F)N1CCCc2ccccc21 | nt | -2% | 4% | -18% | nt | ? | -15% | -3%
Cc1cccc(CSc2ccc3nnc(-c4cccs4)n3n2)c1 | 32µM* | 18% | 6% | -1% | -4.0% | nt | -12% | nt
Cc1ccc(S(=O)(=O)NCCCCCC(=O)Nc2cccc(C)c2)cc1 | -4% | -4% | -9% | -36% | -4.4% | -19% | -26% | 13%
CCOC(=O)c1ccc(NC(=S)N2CCCC(C(=O)OCC)C2)cc1 (stereo not given) | nt | 0% | -5% | -7% | nt | -29% | -2% | ?
CSc1ccccc1C(=O)Nc1cccc([N+](=O)[O-])c1 | nt | 0% | -29% | -4% | nt | ? | -4% | ?
CC(C)NC(=O)CN(Cc1ccccc1)S(=O)(=O)c1ccccc1 | 2% | 1% | -7% | -11% | 6.6% | 5% | 9% | 12%
Cc1ccc(NC(=O)C2=C(C(=O)O)CCCC2)cc1Br | nt | -1% | -8% | 0% | nt | 2% | 17% | -6%
Cc1cc(C(=O)CSc2nc3ccccc3[nH]2)c(C)n1C | -22% | -2% | -23% | -2% | 3.5% | ? | -15% | ?
Cc1ccc(S(=O)(=O)N2CCCC(c3nc4c(nnn4Cc4ccc(OC(F)(F)F)cc4)c(=O)[nH]3)C2)cc1 (stereo not given) | -3% | nt | nt | nt | -0.6% | 6%[46.1 µM] | 8% | 6%[46.1 µM]
CC(C)(C)c1ccc(OCC(O)CS(=O)(=O)c2ccccn2)cc1 (stereo not given) | -15% | 0% | -1% | -48% | 0.5% | 28%[14.3 µM] | -15% | 25%
COc1ccc(NC(=O)Nc2cc(F)ccc2C)cc1 | nt | 1% | 3% | -1% | nt | ? | -5% | ?
COc1ccc(S(=O)(=O)Nc2ccc3c(c2)CCC3)cc1 | nt | -4% | -1% | nt | nt | ? | 14% | 2%[46.1 µM]
COc1ccccc1NC(=O)Cn1c(=O)n(Cc2ccc3c(c2)OCO3)c(=O)c2oc3ccccc3c21 | -5% | nt | nt | nt | -0.6% | 6%[46.1 µM] | -12% | nt
O=C1C=C(NCc2ccco2)C2(CCCCC2)O1 | 9% | 0% | -11% | 1% | 3.1% | 9% | 4% | 3%
O=C(C(NS(=O)(=O)c1cccs1)c1ccccc1)N1CCN(c2ccccc2F)CC1 (stereo not given) | -25% | 5% | -23% | -3% | -0.9% | 7.3µM* | -17% | ?
O=C(Nc1ncn[nH]1)c1ccc(Cl)c(S(=O)(=O)Nc2ccc(Cl)cc2)c1 | -11% | -2% | 1% | 6% | -3.6% | 9% | 22% | 4%
Nn1c(-c2ccccc2)nc2ccccc2c1=O | nt | 1% | -7% | 2% | nt | 9%[46.1 µM] | 4% | 9%&9%[46.1 µM]
NC(=O)COc1ccc(C(=O)/C=C2/C(=O)Nc3ccccc32)cc1 | nt | -1% | 7% | 1% | nt | ? | ? | ?
Cc1[nH]c(=O)[nH]c(=O)c1CSc1nnc(CCCCCNC(=O)OC(C)(C)C)o1 | -6% | 3% | 2% | 17% | 4.1% | -15% | -9% | -2%
Nc1ncc(Br)cc1S(=O)(=O)NC1CCCCC1 | nt | -3% | 4% | 2% | nt | nt | 7% | nt
Cc1cccc(C(=O)OCC(=O)NCCCc2ccccc2)c1 | nt | -3% | 2% | -7% | nt | 11% | 8% | ?
CCOC(=O)n1c(=O)n(Cc2ccccc2)c2ccccc21 | 5% | -7% | 40% | -15% | -5.6% | -15% | -11% | 4%
O=C(Nc1ccc(F)cc1)C1CCN(c2ncnc3c2nc2n3CCCCC2)CC1 | nt | 2% | -3% | -14% | nt | nt | -9% | nt
Cc1ccccc1OCC(O)Cn1c(=N)n(CCN2CCCCC2)c2ccccc21 (stereo not given) | -1% | nt | nt | nt | -2.3% | ? | ? | ?
COc1ccccc1OCCCCNC(C)(C)C | -3% | -2% | -15% | 12% | 6.1% | 1% | nt | -21%
CCN1CCN(C(=O)CCS(=O)(=O)c2cc3c(cc2Cl)NC(=O)CO3)CC1 | nt | -9% | 2% | 9% | nt | nt | 0% | nt
COc1cccc(/C=C2\SC(=S)N(NC(=O)c3ccncc3)C2=O)c1 | nt | -1% | -10% | 3% | nt | nt | -9% | nt
CC/C(=C/c1sc2ccccc2[n+]1CC)SC | -14% | -2% | -24% | 7% | -6.7% | 0% | ? | ?
CCOCCCNC(=O)C(c1ccc(OC)cc1)N(Cc1cccs1)C(=O)c1ccc(NC(C)=O)cc1 (stereo not given) | ? | nt | nt | nt | -0.9% | ? | -6% | ?
CCCCCCOC(=O)c1ccc(N)cc1 | nt | -12% | -9% | -43% | nt | nt | 15% | -5%
Following part
SMILES | Cruzain noTriton | SARS PLP yeast | RE007 growth inh | NS1 function inh | Cruzain inh Det | LASV entry inh | StopGo reporter | Marburg entry inh
COc1ccc(N2CCC(CNC(=S)Nc3c(C)cc(C)cc3C)C2)cc1 (stereo not given) | nt | -1% | 18% | 3% | nt | nt | 0% | nt
O=C(CCc1nc2ccccc2[nH]1)N1CCc2ccccc2C1 | -18% | -9% | -12% | ? | -12% | 4% | -11% | ?
COC(=O)CCC(=O)COc1ccccc1C#N | 0% | -3% | -9% | -2% | 4.3% | 6% | 18% | 0%
Cc1c(C(=O)Nc2cccc(F)c2)oc2c1-c1nn(Cc3c(F)cccc3Cl)cc1CC2 | 16% | nt | nt | nt | -0.9% | 18%[46.1 µM] | -6% | nt
CCOc1ccc(-c2cc(N)n(S(=O)(=O)c3ccc(OC)cc3)n2)cc1 | 5% | 5% | 6% | 5% | 1.9% | nt | -4% | nt
COc1cc2c(cc1NS(=O)(=O)N1CCCC1)oc1ccccc12 | 14% | ? | -15% | -3% | -8.0% | -11% | -15% | -4%
CCCNC(=O)C1CCN(S(=O)(=O)c2cccc3nonc23)CC1 | nt | -1% | 1% | nt | nt | -9%[46.1 µM] | -12% | 2%
Cc1cc(C)c2cc(CN(CCN3CCCC3)C(=O)Nc3ccc(F)cc3)c(=O)[nH]c2c1 | ? | 10% | -10% | 11% | -1.8% | ? | 3% | 4µM*
CCc1nc(SCC(=O)O)c(C#N)c2c1CCCC2 | nt | -1% | -8% | 6% | nt | -6% | -13% | 9%[46.1 µM]
O=C(NCCc1c[nH]c2ccccc12)C(=O)NCC(c1ccco1)N1CCN(c2ccc(F)cc2)CC1 (stereo not given) | ? | -7% | 28% | 9% | 1.8% | ? | -21% | 2%
O=C(Cc1ccccc1)NCCCNC(=O)Cc1ccccc1 | nt | nt | 3% | nt | nt | 12%[46.1 µM] | -18% | 21%
COc1ccc2c(c1)CCc1c(C(=O)NCc3ccco3)noc1-2 | 5% | -1% | -2% | -10% | -2.5% | ? | 55%[activator] | ?

Compound activity: PubChem BioAssay, National Center for Advancing Translational Sciences (NCATS)
